Screens: PubChem BioAssay, ICCB-Longwood Screening Facility, Harvard Medical School
HCMV NEC inh: inhibitors of HCMV UL50-UL53 interaction, biochemical, HTRF; HCMV UL50-UL53 nuclear egress complex (human cytomegalovirus); normalized percent inhibition; inhibition, % (concentration not given with the values); 0.15% of 190,000 active; AID 1918969, 2023;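 active = both replicates at 50% or more, plus weaker picks with an unusually low signal ratio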;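 also: stock transfer was 100 nL into about 20 µL; 0% = negative control wells and 100% = wells with untagged competitor protein; inactives centre near -12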
Sa growth inh: S. aureus growth inhibition at 42 and 30 °C, primary screen, LtaS inhibitor project, RN4220, two temperatures; OD600, 20 h, 42 °C; stronger effect = lower value; relative growth, % (test concentration not listed); 0.53% of 170,000 active;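 active = growth at 42 °C up to 50% and 20 or more points under that at 30 °C, or under 10% at both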;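 also: 300 nL library stock went into each well; scaled to the means of positive and negative controls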
GIV-Gai inh: inhibitors of GIV peptide binding to Galpha-i3, primary screen, biochemical, fluorescence polarization, FITC-GIV GBA peptide, rat Galphai3. AID 1224905, 2016. 0.42% of 210,000 active. Guanine nucleotide-binding protein G(i) subunit alpha-3 (Rattus norvegicus), P08753. percent of control (FP), % (no concentration beside the values). 90 min; stronger effect = lower value; scaled: aluminum fluoride 0%, vehicle 100%;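 active = replicate mean at 85% of control or lower, very high polarization wells dropped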;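 also: wells of about 15 µL received 100 nL stock; the first replicate is given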
Target sequence (P08753 whole entry, looked up): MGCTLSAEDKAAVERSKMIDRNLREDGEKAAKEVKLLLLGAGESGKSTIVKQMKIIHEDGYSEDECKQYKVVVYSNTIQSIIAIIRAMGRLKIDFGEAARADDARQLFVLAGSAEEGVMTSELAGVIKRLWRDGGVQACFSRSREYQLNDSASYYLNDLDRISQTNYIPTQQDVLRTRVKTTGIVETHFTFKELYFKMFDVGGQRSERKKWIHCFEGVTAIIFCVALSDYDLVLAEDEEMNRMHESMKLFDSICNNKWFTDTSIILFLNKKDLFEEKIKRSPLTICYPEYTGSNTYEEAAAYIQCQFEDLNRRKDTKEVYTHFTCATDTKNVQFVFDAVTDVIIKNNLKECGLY
Sa growth inh second temp: recorded beside Sa growth inh, whose call it bears; relative growth, %; measured here: growth at 30 °C;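 optical density after 20 h as mean of two plates; 100% = untreated growth and lower means inhibition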
Numbers without * were called inactive; x = not tested or not shown; & = joins results of further samples.

item	smiles	Sa growth inh second temp	HCMV NEC inh	Sa growth inh	GIV-Gai inh
1	CCOC(=O)CS(=O)c1nc2c(c(C(F)(F)F)n1)CCc1ccccc1-2 (stereo unspecified)	88	x	98	102
2	Cc1ccc(Cn2nc(C)c3cc(C(=O)O)sc32)cc1	96	-27	105	x
3	Cc1ccc(CCNC(=O)c2c[nH]c3ccc(S(=O)(=O)Nc4cccc(C(F)(F)F)c4)cc3c2=O)cc1	98	x	110	101
4	COC(=O)c1sccc1OC(=O)c1ccc(C(C)(C)C)cc1	92	-2	106	101
5	CCOC(=O)c1[nH]c2ccccc2c1NC(=O)CSCc1ccccc1	x	-26	x	103
6	CCOc1ccc(C(=O)N2CCCCCC2)cc1	83	9	103	104
7	CC(C)CC(N)C(O)C(F)(F)F (stereo unspecified)	94	-16	96	x
8	CC(NC(=O)c1cccc(C(=O)NC(C)c2ccccc2)c1)c1ccccc1 (stereo unspecified)	84	x	83	97
9	O=C(Nc1cccc(Cl)c1)c1c(NC(=O)C(F)(F)F)sc2c1CCCC2	-1.0*	-47	-1.2*	102
10	COc1c(C(=O)Nc2nnc(C3CC3)s2)csc1Cl	87	-16	95	105

Reprinted at random: 3 compounds from above, in no set order.
item	smiles	Sa growth inh second temp	HCMV NEC inh	Sa growth inh	GIV-Gai inh
10	COc1c(C(=O)Nc2nnc(C3CC3)s2)csc1Cl	87	-16	95	105
1	CCOC(=O)CS(=O)c1nc2c(c(C(F)(F)F)n1)CCc1ccccc1-2 (stereo unspecified)	88	x	98	102
9	O=C(Nc1cccc(Cl)c1)c1c(NC(=O)C(F)(F)F)sc2c1CCCC2	-1.0*	-47	-1.2*	102

New compounds follow:
item	smiles	Sa growth inh second temp	HCMV NEC inh	Sa growth inh	GIV-Gai inh
11	CCn1c(CN2CCCCC2)nc2cc(S(=O)(=O)N(C)C)ccc21	96	-8	94	x
12	C=CCOc1ccccc1CN(C(=O)c1c(C)noc1C)c1ccc2c(c1)OCCO2	84	-6	87	x
13	COc1ccccc1NC(=O)c1c(NCc2ccc(OC)c(OC)c2OC)sc2c1CCCC2	91	x	91	102
14	Cc1ccc(C)c(NC(=O)c2ccc3c(O)c(S(=O)(=O)c4ccc(Cl)cc4)c(=O)[nH]c3c2)c1	77	x	85	98
15	Nc1ccnn1C1CCCC1	82	-18	100	104
16	O=C(C1CCN(c2nnc(N3CCCC3=O)s2)CC1)N1CCc2ccccc2C1	x	-7	x	100
17	Cc1cc(C)cc(NC(=O)c2ccc3c(O)c(S(=O)(=O)c4ccccc4)c(=O)[nH]c3c2)c1	85	x	96	102
18	Cc1cc(-c2c(C(=O)NN3CCOCC3)c(C)nn2-c2ccccc2)no1	94	-25	106	106
19	c1ccc2c(c1)CCN(Cc1ccncc1)C2	78	-18	84	104
20	Cc1ccc(C)c(N2CCN(c3nccn4nc(-c5ccc(Br)cc5)cc34)CC2)c1	108	31&-15	100	112&103
21	CCCCOC(=O)c1ccc(NC(=O)C2=Cc3ccc(C)cc3OC=C2)cc1	x	-23	x	100
22	c1ccc(OCCSc2nc3ccccc3o2)cc1	80	3	108	100
23	CCOc1ccc(S(=O)(=O)N(CC(=O)Nc2ccccc2C(=O)OC)c2ccccc2)cc1	104	8	112	101
24	CN(Cc1ccc(Cl)cc1Cl)Cn1ccn(C)c1=S	75	-38	91	x
25	CCC1CCCCN1C(=O)COC(=O)c1cnc(Cl)c(Cl)c1 (stereo unspecified)	84	-17	110	x
26	CC(C)Cn1cc(NC(=O)NCc2ccc(Cl)cc2)c2ccccc2c1=O	81	x	97	101
27	CC1CCN(c2cc(C(=O)O)c3cc(NC(=O)c4ccc(Br)cc4)ccc3n2)CC1	x	-32	x	112
28	COc1ccc(S(N)(=O)=O)cc1C(=O)Nc1ccc(N2CCOCC2)cc1	99	-16	104	x
29	COc1cccc(-c2cc(C(=O)Nc3cccnc3)on2)c1	90	-26	81	102
30	NC(=O)c1noc2c1COc1ccccc1-2	x	-27	x	105

Some of the entries so far, as labelled records:
21. CCCCOC(=O)c1ccc(NC(=O)C2=Cc3ccc(C)cc3OC=C2)cc1
  Sa growth inh second temp = x
  HCMV NEC inh = -23
  Sa growth inh = x
  GIV-Gai inh = 100

22. c1ccc(OCCSc2nc3ccccc3o2)cc1
  Sa growth inh second temp = 80
  HCMV NEC inh = 3
  Sa growth inh = 108
  GIV-Gai inh = 100

23. CCOc1ccc(S(=O)(=O)N(CC(=O)Nc2ccccc2C(=O)OC)c2ccccc2)cc1
  Sa growth inh second temp = 104
  HCMV NEC inh = 8
  Sa growth inh = 112
  GIV-Gai inh = 101

Following part
item	smiles	Sa growth inh second temp	HCMV NEC inh	Sa growth inh	GIV-Gai inh
31	Cc1nc(C)c(S(=O)(=O)NCc2ccc(N3CCN(C)CC3)cc2)s1	92	-30	96	101
32	CCOc1ccc(-c2nonc2NC(=O)C(C)Oc2ccc(C)c(C)c2)cc1C (stereo unspecified)	x	-18	x	104
33	COc1ccc(C2=NOC(CN3C(=O)c4ccccc4S3(=O)=O)C2)cc1 (stereo unspecified)	84	-14	100	100
34	O=C(O)COc1nsnc1N1CCOCC1	101	-7	116	107
35	Cc1cccc(NC(=O)C(C)Sc2nc3c(c(=O)[nH]2)CCCC3)c1C (stereo unspecified)	x	-21	x	100
36	COc1ccc(C(=O)Nc2c(N)nc(SCC(=O)NC3CCCCC3)[nH]c2=O)cc1	90	-13	107	105
37	O=C1CC(C(=O)NC2CCCCC2)C(c2ccccc2)O1 (stereo unspecified)	98	4	110	109
38	CCN1C/C(=C\c2ccc3c(c2)OCO3)C(=O)/C(=C/c2ccc3c(c2)OCO3)C1	77	11	87	x
39	O=C(CCn1c(SCC(=O)NCc2ccccc2)nc2cc3c(cc2c1=O)OCO3)NCc1ccc2c(c1)OCO2	98	1	107	107
40	COc1cccc(OC)c1C(=O)N=c1sc2cc(S(C)(=O)=O)ccc2n1C	79	x	109	100

Some of these compounds in order of formula weight, lowest first.
item	smiles	Sa growth inh second temp	HCMV NEC inh	Sa growth inh	GIV-Gai inh
15	Nc1ccnn1C1CCCC1	82	-18	100	104
37	O=C1CC(C(=O)NC2CCCCC2)C(c2ccccc2)O1 (stereo unspecified)	98	4	110	109
11	CCn1c(CN2CCCCC2)nc2cc(S(=O)(=O)N(C)C)ccc21	96	-8	94	x
31	Cc1nc(C)c(S(=O)(=O)NCc2ccc(N3CCN(C)CC3)cc2)s1	92	-30	96	101

The list goes on.
item	smiles	Sa growth inh second temp	HCMV NEC inh	Sa growth inh	GIV-Gai inh
41	O=C(c1ccc(Nc2nc3ccccc3n3nnnc23)cc1)N1CCc2ccccc2C1	97	-22	104	129
42	COc1nc(C)nc(NC(=O)NN)n1	92	-35	95	98
43	O=C(NC1CCS(=O)(=O)C1)c1ccc(-c2ccccn2)s1 (stereo unspecified)	96	-64	92	96
44	CCOCc1cnc(C)nc1NC(C)=O	100	-30	96	x
45	O=C(CSc1nc2ccccc2c(=O)n1-c1ccccc1)N1CCN(CCO)CC1	96	-1	95	x
46	CC[N+](C)(CC)Cc1ccccc1	95	1	70	x
47	COc1ccccc1S(=O)(=O)Cc1ccc(C(=O)NC2CCCCCC2)o1	81	x	93	103
48	Cc1c(C(=O)O)nn(-c2ccccc2)c(=O)c1C#N	86	-129	111	96
49	O=C(NCCOCCn1c(=O)oc2ccccc21)Nc1cccc(Cl)c1	81	-19	101	98
50	NC(=O)c1ccccc1Sc1ccccc1	76	-2	104	103
51	CCn1c(C(=O)OC)cc2sc(Cl)cc21	85	x	106	106
52	CCSCCOC(=O)C1=C(C)NC2=C(C(=O)CC(c3ccc(OC)cc3)C2)C1c1ccc(OC)cc1 (stereo unspecified)	x	-14	x	107

Structures listed so far that have bromine:
item	smiles	Sa growth inh second temp	HCMV NEC inh	Sa growth inh	GIV-Gai inh
20	Cc1ccc(C)c(N2CCN(c3nccn4nc(-c5ccc(Br)cc5)cc34)CC2)c1	108	31&-15	100	112&103
27	CC1CCN(c2cc(C(=O)O)c3cc(NC(=O)c4ccc(Br)cc4)ccc3n2)CC1	x	-32	x	112
